StopGo reporter – lowers the luciferase signal of an FMDV 2A StopGo reporter; 410,000 compounds, 1.2% hits; human cells with a luciferase reporter of 2A StopGo recoding; control for the full effect not named in the record; Potency, µM (highest dose often 57.9 µM), for the others: top-dose signal change, negative = less light; AID 1159524; active = well fitted falling curve with a large enough effect; inconclusive = small, poorly fitted or top-dose-only effect; inactive = no such curve, though single readings can be large or run the other way; tested in HEK293T cells; note: nearly all actives have a fitted effect of over 45% in size; luciferase light after 4 h
RE007 growth inh – less growth of the S. pombe RE007 Vpr strain; 360,000 compounds, 0.21% hits; AID 651644; Potency, µM (titrated, usually from 92.2 µM), for the others: top-dose activity change, negative = less growth; S. pombe RE007 Vpr strain, BacTiter-Glo ATP luminescence, 24 h; control for the full effect not named in the record; active = well fitted falling curve with a large enough effect; inconclusive = small, poorly fitted or top-dose-only effect; inactive = no such curve, though single readings can be large or run the other way;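 note: nearly all actives have a fitted effect of over 50% in size; the assay follows cell death caused by Vpr and the record does not say whether a fall means rescue or toxicity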
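Fission yeast RE007 carrying one integrated HIV-1 vpr copy, seeded at OD 0.01 in PMG+AL medium with 23 nL pinned compound. Grown 24 h at 30 degrees; viability read by BacTiter-Glo luminescence after 5 min.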
Numbers without * were called inactive; ? = inconclusive; [ ] = remark or other dose. % is set by controls: 0 for no effect and ±100 for the full control effect; potency is the fitted concentration of half-maximal effect. Not all compounds are listed; the hit share may differ from the screen's.

molecule,StopGo reporter,RE007 growth inh
CCOC(=O)[C@]12CCCC=C1N(Cc1ccc(Cl)cc1Cl)C(=O)[C@H](CC(=O)NCCCN1CCCC1=O)C2,-22.9%,-10.5%
CCN(CC)C(=O)C1=C(C)N(CCCN2CCCC2=O)C(=O)C(CC(=O)NCC2CCCCC2)C1 (stereo not given),-16.9%,-6.6%
CCCCCCn1c(=O)n2n(c1=O)C[C@]1(OC(=O)NC3CC3)CN(S(=O)(=O)c3ccc(C)cc3)C[C@]1(O)C2,-18.5%,4.4%
Cc1cccc(C)c1C(O)c1ncc(-c2cccc(C(F)(F)F)c2)[nH]1 (stereo not given),-11.9%,-2.8%
O=S1(=O)CC(N2CCN(Cc3ccccc3F)CC2)CN1Cc1cn(Cc2ccccc2)nn1 (stereo not given),-23.4%,-2.9%
O=C(Nc1ccc(F)c(Cl)c1)c1ccc2nc([C@@H]3O[C@H](CO)[C@H](O)[C@H](O)[C@H]3O)[nH]c2c1,-6.3%,0.8%[18.4 µM]
CCOC(=O)C1=CCC(C(C)(C)C)N(S(=O)(=O)c2ccc(C)cc2)C1 (stereo not given),-13.8%,8.1%
O=C1NC[C@H](CCCCN2C[C@H](Cc3ccc(O)cc3)N(Cc3ccccc3)C(=O)C2=O)N(CCc2ccccc2)C1=O,-15.3%,8.5%
CCOC(=O)[C@@H]1[C@H]2COc3cc(OC)ccc3[C@@H]2N2C(=O)N(c3ccc(Cl)cc3)C(=O)[C@]12C,-19.4%,-2.8%
CCc1nc2c(OCCOc3ccc(F)cc3)cccn2c1N(C)C(=O)c1ccco1,?,-23.4%[18.4 µM]
CC1=C(C(=O)N(C(C)C)C(C)C)CC(CC(=O)NC2CCCCC2)C(=O)N1Cc1ccc(F)cc1 (stereo not given),-8.1%,-8.8%
CC(=O)CC1c2ccccc2C=C(c2ccsc2)N1c1ccc(-c2cccs2)cc1 (stereo not given),-12.2%,-6.9%
Cc1cccc(C)c1C(O)c1ncc(-c2cccc(F)c2)[nH]1 (stereo not given),-5.0%,-2.3%
O=C1NC[C@H](CCCCN2C[C@H](Cc3ccc(O)cc3)N(CCC3CCCCC3)C(=O)C2=O)N(CC2CCCCC2)C1=O,-17.0%,2.4%
COc1ccc2[nH]cc(CCNC(=O)Cn3cc(C)c(=O)[nH]c3=O)c2c1,-7.6%,-2.3%

Continuation:
molecule,StopGo reporter,RE007 growth inh
O=S1(=O)CC(N2CCSCC2)CN1Cc1cn(Cc2ccc(C(F)(F)F)cc2)nn1 (stereo not given),-11.0%,-5.1%
Cc1c(C(=O)NCc2cccc([N+](=O)[O-])c2)sc(=O)n1Cc1ccc(F)cc1,0.0%,7.3%[18.4 µM]
O=C(NCCOc1ccccc1)N1[C@H]2CC[C@@H]1C=C(c1ccc(F)cc1OCc1ccccc1)C2,?,1.5%
CC(C)(C)Cc1c(-c2ccc(C#N)cc2)nc2c(Cl)cc(C(F)(F)F)cn12,?,35.3%
Cc1cccc(C)c1NC(=O)C1(C)CSCC(=O)N1Cc1cccs1 (stereo not given),-7.0%,-6.8%
COCCN(C(=O)COC(=O)c1c(C)nn(-c2ccccc2)c1C)c1c(N)n(Cc2ccccc2)c(=O)[nH]c1=O,-1.3%,-11.9%
CC1(C(=O)Nc2cccc(NS(C)(=O)=O)c2)Cc2c(-c3cccc(C(N)=O)c3)ccnc2O1 (stereo not given),-2.1%,4.7%
COCc1nnc(NS(=O)(=O)c2ccc(OC)cc2)s1,23.0%,-7.3%
CCCCCCCCC(=O)c1c(OC)oc(C=O)cc1=O,2.5%,-9.4%
CN(Cc1ccccc1)C(=O)[C@@H]1CCCN1,-15.1%,2.9%
CSCCC(C(=O)NC(C)(C)C)n1c(-c2ccc3c(c2)OCO3)nc2ccccc21 (stereo not given),-1.1%,-12.5%
COc1cccc(NC(=O)C2(C)CCN2Cc2ccc(OC(C)C)cc2)c1 (stereo not given),-18.8%,2.3%
CC1(C(=O)NCc2ccc(F)c(F)c2)Cc2c(-c3cccc(C(N)=O)c3)ccnc2O1 (stereo not given),-0.8%,8.7%[18.4 µM]
COc1ccc(-c2ccc3[nH]c4c(c3c2)CCN2C[C@@H]([C@H](C)OC(=O)Nc3cc(Cl)cc(Cl)c3)[C@@H](N(C)C(=O)Nc3cc(Cl)cc(Cl)c3)C[C@@H]42)cc1,-10.5%,-10.8%
O=C(Nc1ccn(CCCNCCc2ccccn2)c(=O)n1)OCc1ccccc1,2.4%,-2.2%

Continued.
molecule,StopGo reporter,RE007 growth inh
S=C1NC[C@H](Cc2ccccc2)N1CC1CCN(CCCC2CCCC2)CC1,?,-8.9%
O=C(Nc1ccccc1F)c1ccc2sc([C@H]3C[C@H](O)[C@@H](CO)O3)nc2c1,18.3%,4.5%
Cc1ccccc1S(=O)(=O)N1C[C@H]2CON(C)[C@H]2C[C@H]1c1cccc(Br)c1,-19.4%,0.2%
COCCNC(=O)C1(C)CCCN(Cc2ccc(-c3ccccc3)o2)C1 (stereo not given),-20.1%,2.1%
CN(C(=O)c1cccc(NC(=O)Cc2cccc(NC(=O)C3CCN(C(=O)CCc4ccccc4)CC3)c2)c1)C1CC1,-24.0%,3.0%
O=C(c1ccccc1)c1nn(-c2ccccc2)c(=O)cc1-c1ccccc1,-24.3%,10.0%
Cc1ccc(C)c(NS(=O)(=O)c2ccc(-n3cccn3)cc2)c1,0.0%,0.6%
COC(=O)c1nn(-c2ccccc2)c(Cl)c1/C=N/OCc1c(Cl)cccc1Cl,-13.4%,17.2%
CN(C)c1ccc(C=C2C=C(c3ccccc3)OC2=O)cc1,28.1%,-20.4%
COc1ccc(-c2ccc3[nH]c4c(c3c2)CCN2C(=O)[C@@H]([C@H](C)O)[C@@H](N(C)C(=O)Nc3ccc(F)cc3)C[C@@H]42)cc1,?,3.8%
COc1cc(C(=O)NC(=S)NCc2ccncc2)cc(OC)c1OC,?,-0.8%
CCCc1c(-c2ccccc2F)ncn1Cc1ccccc1OC,?,?
Cc1ccsc1C(=O)N1CCC1(C)C(=O)Nc1cccc(C#N)c1 (stereo not given),-17.1%,2.8%[18.4 µM]
COC(=O)[C@@]12C[C@@H](CC(=O)NCc3cccc4ccccc34)C(=O)N(CCc3ccc(OC)c(OC)c3)C1=CCC(C)(C)C2,-12.8%,-2.4%
CN1C(=O)CON=C1c1cccc2ccccc12,-10.0%,-6.0%[18.4 µM]

Next section.
molecule,StopGo reporter,RE007 growth inh
COc1ccc(C(=O)N(c2ccccc2)c2nccc3ccccc23)cc1OC,-11.2%,7.2%
COC(=O)c1ccc(C(=O)N2CCCC(C)(C(=O)NS(=O)(=O)C3CC3)C2)cc1 (stereo not given),0.0%,-20.3%
CCCCn1nnnc1C(C1CC1)N1CCC(n2c(=O)[nH]c3ccccc32)CC1 (stereo not given),-14.6%,3.2%
CC(C)c1ccc(NC(=O)Nc2nc(C(N)c3ccccc3)cs2)cc1 (stereo not given),-24.2%,8.6%
Cc1cc(O)cc2c1O[C@@](C)(CCC[C@@H](C)CCC[C@@H](C)CCCC(C)C)CC2,?,-4.5%[18.4 µM]
COc1cc(-c2nnc(COC(=O)c3ccc([N+](=O)[O-])o3)o2)cc(OC)c1OC,2.8%,-4.5%
COC(=O)[C@H]1C[C@@]2(O)CN(S(=O)(=O)c3ccc(C)cc3)C[C@@]2(OC(=O)NCc2ccccc2F)C[C@H]1C(=O)OC,?,6.2%
O=C(Nc1ccc(Cl)c(Cl)c1)N[C@@H]1CC[C@@H](CCn2cc(C3CCCCC3)nn2)O[C@@H]1CO,?,7.9%
COCCNC(=O)C1(C)CCCN(C(=O)c2ccccc2OC)C1 (stereo not given),-23.0%,-2.8%[18.4 µM]
NC(=O)C1=C[C@@H](c2ccc3c(c2)OCO3)C[C@@H](OCCCCO)O1,0.3%,3.8%
COc1ccc(C(O)C(C)NC(C)C(O)c2ccc(OC)cc2)cc1 (stereo not given),-4.2%,0.0%
O=C(NC1CCCC1)C(c1ccccc1)n1c(Cc2cc(F)cc(F)c2)nc2ccccc21 (stereo not given),-13.0%,-4.0%
Cn1nc(C(C)(C)C)cc1NC(=O)C1(C)CCN1C(=O)CCc1ccccc1 (stereo not given),-19.9%,15.0%
C[C@]12C=CC(=O)C=C1CC[C@@H]1[C@@H]2CC[C@]2(C)C(=O)CC[C@@H]12,-27.5%,-13.3%
COC(=O)[C@]12CCCCC=C1N(Cc1ccc(Cl)cc1Cl)C(=O)[C@H](CC(=O)N1CCSCC1)C2,-22.9%,-13.8%

Part of the list above, as labelled records:
> COc1ccc(C(=O)N(c2ccccc2)c2nccc3ccccc23)cc1OC
  StopGo reporter: -11.2%
  RE007 growth inh: 7.2%

> COC(=O)c1ccc(C(=O)N2CCCC(C)(C(=O)NS(=O)(=O)C3CC3)C2)cc1 (stereo not given)
  StopGo reporter: 0.0%
  RE007 growth inh: -20.3%

(continued)
molecule,StopGo reporter,RE007 growth inh
COc1ccc(S(=O)(=O)NC(=O)C2(C)CCN2C(=O)CC2CCCCC2)cc1OC (stereo not given),-11.7%,3.2%[18.4 µM]
CCCCn1nnnc1C(CCSC)N1CCC(n2c(=O)[nH]c3ccccc32)CC1 (stereo not given),-12.7%,1.7%
CC[N+](CC)=N/N=C1\C=CC[N+]([O-])=C1,-19.6%,2.4%
CCOC(=O)c1c(NC(=O)COC(=O)c2ccc(S(=O)(=O)C(F)F)cc2)sc(C(=O)N(C)C)c1C,0.8%,-19.7%
CCCC(=O)N1CCCC(c2cc(C(=O)NCc3ccc(F)cc3)no2)C1 (stereo not given),-0.9%,3.8%
CCCCCCCCN1C(=O)[C@H](CC(=O)NCCCCc2ccccc2)C[C@@]2(C(=O)OC)CCCCC=C12,-9.6%,-2.1%
CC(C)CNC(=O)C1(C)CCCN1C(=O)c1ccc2ccccc2n1 (stereo not given),-8.8%,-10.5%
COc1ccc(C(c2nnnn2-c2ccc3c(c2)OCCO3)N2CCC(n3c(=O)[nH]c4ccccc43)CC2)cc1 (stereo not given),-9.3%,-0.1%
Cn1c2nc3ccccc3c-2nc2ccccc21,36.1%[activator],-23.7%
O=C1N=C2N(CCN3CCCCC3)c3ccccc3N2/C1=C\c1ccc([N+](=O)[O-])s1,-6.9%,0.2%
CC(=O)Nc1ccc(CN(C)c2c(C)nc3ccc(C(=O)N4CCN(C(=O)c5ccco5)CC4)cn23)cc1,-18.7%,-2.5%[18.4 µM]
c1ccc(CN2Cc3ccccc3-n3nncc3C2)cc1,-17.1%,10.0%
COc1ccc(CC(N)c2csc(NC(=O)Nc3ccc(C(C)C)cc3)n2)cc1 (stereo not given),?,37.5%
CC1(C(=O)NS(=O)(=O)Cc2ccccc2)CCN1C(=O)CCc1ccccc1 (stereo not given),-19.0%,3.6%
CCOC(=O)N(C)c1c(CC)nc2c(OCC(=O)C(C)(C)C)cccn12,-9.4%,-3.5%

Other entries
molecule,StopGo reporter,RE007 growth inh
Cc1cccc(C)c1NC(=O)C(c1ccccc1)n1c(=O)c(-c2ccco2)nc2ccccc21 (stereo not given),-8.8%,5.6%
Nc1cc(Br)cc2c1[nH]c(=O)c1ccccc12,-14.0%,11.2%
CCCCCCN1CCN(C2CN(Cc3cn(CCCC(=O)OC)nn3)S(=O)(=O)C2)CC1 (stereo not given),-7.1%,-4.6%
N#Cc1cccc(N2[C@@H](Cc3cc4ccccc4n3Cc3ccccc3)COC[C@H]2Cc2ccc3ccccc3c2)c1,-15.8%,-6.7%
CCCCCCCCN1[C@@H](CC(=O)O)c2cc(F)ccc2S1(=O)=O,2.3%,-12.5%
COC(=O)C1=CO[C@@H](O[C@@H]2OC(CO)[C@@H](O)[C@@H](O)[C@@H]2O)C2C1CC[C@]2(C)O (stereo not given in full),-9.6%,9.8%
COc1ccc(Cl)cc1-c1cc(C(=O)Nc2ccc(Br)cc2)[nH]n1,-2.8%,-23.3%
O=C(NCc1cccc(Cl)c1)c1ccc(-c2cccnc2)c2ccoc12,21.9%,2.5%
CC(C)C[C@H]1CNC(=S)N1C[C@H]1CCCN1C[C@H](Cc1ccc(O)cc1)N1C[C@H](Cc2ccc(O)cc2)N(CC2CCCCCC2)C1=S,-8.1%,10.4%
CC(C)c1ccc(CC(=O)N2CCC2(C)C(=O)Nc2cnc3ccccc3c2)cc1 (stereo not given),?,-7.6%
O=C(NCc1ccc(F)cc1)OC1CC2CC1[C@H]1CCCCN1C2=O (stereo not given in full),-10.7%,-14.6%
CCOC(=O)C1=C(C)OC(=Cc2ccc(OC)cc2)C1=O,-4.1%,-13.2%
Cc1ccc(-c2nc3ccc(C)cn3c2Cc2cccc(F)c2)cc1,16.0%,?
COc1cc(-c2coc3c(C(=O)NC4CCCCC4)cccc23)ccc1O,-22.8%,-15.1%
O=C(Nc1ccc2c(c1)OCCO2)C(c1ccnc2ccccc12)N1CCN(c2ccc(C(F)(F)F)cn2)CC1 (stereo not given),-5.4%,-4.5%
O=C(Nc1nc(OCC(F)(F)F)cnc1/C=C\c1ccccc1)c1ccccc1,-10.7%,0.0%
O=C1NC[C@@H](CCCCN2C[C@H](Cc3ccccc3)N(CC3CCCCC3)C(=O)C2=O)N(CCc2ccc(O)cc2)C1=O,-15.4%,-11.2%
OC(c1ccccc1)(c1nc(-c2cccc3cccnc23)cs1)C(F)(F)F (stereo not given),-8.1%,-2.9%[18.4 µM]
